SARS PLpro yeast: inhibitors of SARS-CoV papain-like protease in yeast; S. cerevisiae expressing SARS-CoV PLpro, growth rescue; control for the full effect not named in the record; Potency, µM (highest dose often 32.9 µM), without a hit: at the highest dose activity, positive = growth rescue; 0.19% of 330,000 active; active means well fitted rising curve with a large enough effect; inconclusive means small, poorly fitted or top-dose-only effect; inactive means no such curve, though single readings can be large or run the other way; note: 0% is about no effect; nearly all actives have a fitted effect of over 55% in size; growth read by luminescence after 48 h
StopGo reporter: FMDV 2A StopGo reporter, luciferase signal | Potency, µM (series often up to 57.9 µM), for inactives: top-dose signal change, negative = less light | human cells with a luciferase reporter of 2A StopGo recoding; control for the full effect not named in the record | AID 1159524 | 1.2% of 410,000 active; active = well fitted falling curve with a large enough effect; inconclusive = small, poorly fitted or top-dose-only effect; inactive = no such curve, though single readings can be large or run the other way; tested in HEK293T cells; note: % is set by controls: 0 for no effect and ±100 for the full control effect; nearly all actives have a fitted effect of over 45% in size; luciferase light after 4 h
Cruzain noTriton: cruzain (T. cruzi) inhibition without detergent; P25779; purified cruzain, Z-FR-AMC fluorescence, no detergent; Potency, µM, without a hit: max response, negative = inhibition, most hits filed as inhibitors; 2.3% of 200,000 active;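 note: plate controls were enzyme without inhibitor for no effect and buffer without enzyme for full effect; nearly all actives have a fitted effect of over 40% in size; top concentration of the series not given in the record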
Target sequence (P25779 123-467 limits assumed): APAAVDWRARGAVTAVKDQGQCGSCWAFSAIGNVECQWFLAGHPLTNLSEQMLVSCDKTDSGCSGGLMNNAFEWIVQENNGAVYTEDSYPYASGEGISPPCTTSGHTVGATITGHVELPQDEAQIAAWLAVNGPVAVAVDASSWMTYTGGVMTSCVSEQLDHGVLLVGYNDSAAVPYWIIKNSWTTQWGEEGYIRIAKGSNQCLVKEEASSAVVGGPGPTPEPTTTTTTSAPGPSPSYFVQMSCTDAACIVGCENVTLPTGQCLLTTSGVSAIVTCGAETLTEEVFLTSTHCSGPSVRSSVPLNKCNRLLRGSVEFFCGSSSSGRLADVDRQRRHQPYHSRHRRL
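Detergent-free condition (0.00005% Triton X-100) in acetate buffer pH 5.5 with DTT. 1.5 nM enzyme and compound were pre-mixed 15 min, then 2 uM Z-FR-AMC substrate added; reaction progress from fluorescence change between first and third reads (60 s).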
RE007 growth inh: less growth of the S. pombe RE007 Vpr strain | S. pombe RE007 Vpr strain, BacTiter-Glo ATP luminescence, 24 h; control for the full effect not named in the record | Potency, µM (series often up to 92.2 µM), for the others: top-dose activity change, negative = less growth | 0.21% of 360,000 active | AID 651644; active = well fitted falling curve with a large enough effect; inconclusive = small, poorly fitted or top-dose-only effect; inactive = no such curve, though single readings can be large or run the other way;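 note: % is set by controls: 0 for no effect and ±100 for the full control effect; nearly all actives have a fitted effect of over 50% in size; the assay follows cell death caused by Vpr and the record does not say whether a fall means rescue or toxicity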
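Fission yeast strain RE007, carrying one chromosomally integrated HIV-1 vpr copy, was seeded at OD 0.01 in PMG+AL medium with 23 nL pinned compound. After 24 h at 30 °C and 99% humidity, viability was read by BacTiter-Glo luminescence.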
NS1 function inh: inhibitors of influenza NS1 protein function. S. cerevisiae slowed by influenza A NS1, growth recovery by OD600. Potency, µM (top dose mostly 46.1 µM), without a hit: top-dose activity, positive = more growth. 0.4% of 270,000 active. AID 2326; active means well fitted rising curve with a large enough effect; inconclusive means small, poorly fitted or top-dose-only effect; inactive means no such curve, though single readings can be large or run the other way; note: nearly all actives have a fitted effect of over 50% in size
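Read-out: OD600 growth recovery of NS1-expressing budding yeast. Cells grown overnight at 30C in -URA glucose medium, washed, resuspended and diluted 1:100 in 2% galactose assay medium, pH 6.0. Same strain lacking NS1 served as positive control.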
MARV entry inh: inhibitors of Marburg virus binding or cell entry. Marburg virus pseudotyped entry inhibition, cell reporter; control for the full effect not named in the record; about a third of the inactives were read at about 46 µM. Potency, µM (top dose mostly 37.8 µM), inactives show at the top dose activity change, negative = inhibition, usual class: inhibitors. 1.8% of 300,000 active. AID 540276; active = well fitted inhibition curve with a large enough effect; inconclusive = small, poorly fitted or top-dose-only effect, or effect the other way; inactive = flat fitted curve, though single readings scatter; tested in HEK293 cells; about a fifth of its hits are not listed in these tables; note: % is set by controls: 0 for no effect and ±100 for the full control effect; luciferase read-out
LASV entry inh: blocks Lassa virus binding to or entry into cells | Lassa virus pseudotype entry inhibition, cell reporter; control for the full effect not named in the record | Potency, µM (top dose mostly 37.9 µM), without a hit: at the top dose activity change, negative = inhibition, actives largely listed as inhibitors | 1.2% of 300,000 active; active means well fitted inhibition curve with a large enough effect; inconclusive means small, poorly fitted or top-dose-only effect, or effect the other way; inactive means flat fitted curve, though single readings scatter; tested in HEK293 cells; note: % is set by controls: 0 for no effect and ±100 for the full control effect; nearly all actives have a fitted effect of over 50% in size; luciferase read-out
Cruzain inh Det: inhibitors of Trypanosoma cruzi cruzain with detergent | Potency, µM, for inactives: max response, negative = inhibition, hits mostly inhibitors | P25779 | purified cruzain, Z-FR-AMC fluorescence, 0.01% Triton | AID 1478 | 0.43% of 200,000 active;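 note: plate controls were neutral wells for no effect and buffer without enzyme for full effect; nearly all actives have a fitted effect of over 40% in size; top concentration of the series not given in the record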
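Cysteine protease activity tested under reducing, mildly acidic conditions (100 mM sodium acetate pH 5.5, 5 mM DTT) plus 0.01% Triton X-100. Cruzain 1.5 nM; substrate Z-FR-AMC 2 uM; 15 min compound preincubation at room temperature.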
An asterisk follows results filed as active; ? = inconclusive; / = no result given; & = joins results of further samples; [ ] = another dose, or the depositor's remark. Unless noted, calls come from the whole dose curve; as a rule, active = well fitted curve in the direction sought with a large enough effect; inconclusive = small, poorly fitted or top-dose-only effect, or another doubt; inactive = no such curve, though single readings can be large; an effect the other way counts as inactive or inconclusive. Potency is the fitted concentration of half-maximal effect.

Screens in order – SARS PLpro yeast | StopGo reporter | Cruzain noTriton | RE007 growth inh | NS1 function inh | MARV entry inh | LASV entry inh | Cruzain inh Det
CC(=O)N1CCc2c(sc(NC(=O)CSc3ccc(F)cc3)c2-c2nc3ccccc3s2)C1
→ / | 0% | 18% | / | / | / | -9%[46.1 µM] | -3.1%
CCN(C(=O)CSc1nnc(C)n1Cc1ccccc1)C1CCS(=O)(=O)C1 (stereo not drawn)
→ 4% | 0% | / | -8% | 0% | 9%[46.1 µM] | -8% | /
CCOC(=O)c1noc2ncn(Cc3cccc(C#N)c3)c(=O)c12
→ / | -26% | -6% | / | / | / | 5%[46.1 µM] | 1.5%
CCCOc1ccc(N2C(=O)CC(N(CCc3ccc(OC)c(OC)c3)C(=S)Nc3ccccc3)C2=O)cc1 (stereo not drawn)
→ -14% | -9% | ? | 11% | ? | ? | ? | -5.0%
Cc1onc(-c2ccccc2)c1C(=O)N1CC(C)OC(C)C1 (stereo not drawn)
→ 11% | -7% | -5% | 16% | -11% | 16% | -7% | 2.8%
CCc1ccccc1NC(=O)CSc1ccsc1[N+](=O)[O-]
→ -1% | ? | -20% | 2% | 9% | -1% | 16% | -10%
CCc1nnc(NC(=O)C2=NN(C3CCS(=O)(=O)C3)C(=O)CC2)s1 (stereo not drawn)
→ -1% | -12% | / | 2% | / | -1%[46.1 µM] | / | /
CCc1ccccc1NS(=O)(=O)c1ccc2[nH]cc(C(=O)N(CC(C)C)CC(C)C)c(=O)c2c1
→ / | 1% | 10% | / | / | / | 0%[46.1 µM] | -5.1%
CC1(C)CC(=O)C(C=Nc2ccc3cn[nH]c3c2)=C(O)C1
→ 4% | / | -5% | ? | 1% | 1% | 13% | -4.2%
CCS(=O)(=O)Nc1cccc(-c2cc(-c3ccccc3)c3cc(C)ccc3n2)c1
→ -75% | 0% | 10% | 36% | 7% | ? | ? | 7.1%
CC1CN(C(=O)COC(=O)Cc2c(Cl)cccc2Cl)CC(C)O1 (stereo not drawn)
→ 5% | 2% | / | -3% | / | -1%[46.1 µM] | ? | /
Cc1nc(Nc2cccc(C(C)O)c2)c2nnn(Cc3ccccc3F)c2n1 (stereo not drawn)
→ 0% | -25% | / | 9% | -5% | -9%[46.1 µM] | -6% | /
CCOc1ccc(-n2c(SCC(=O)Nc3cccc(Cl)c3)nc3c(oc4ccccc43)c2=O)cc1
→ / | -1% | 6% | / | / | -22%[46.1 µM] | ? | 0.5%
O=S(=O)(c1ccc(F)cc1)N1CCc2ccccc21
→ -2% | -21% | / | 0% | 8% | / | / | /
CN(C)CCNC(=O)c1c(NC(=O)c2ccccc2)sc2c1CCCC2
→ 3% | 27% | / | 3% | 4% | / | / | /
Cc1cccc2sc(NC(=O)c3ccc(OCC4CCCO4)cc3)nc12 (stereo not drawn)
→ 0% | ? | / | -8% | 2% | ? | 26% | /
COc1ccc(-c2ncncc2-c2csc(C)n2)c(O)c1OC
→ 2% | -5% | 2% | -4% | 4% | 20% | 8% | 1.9%
CC[N+](C)(CC)CCOC(=O)C1c2ccccc2Oc2ccccc21
→ -2% | -18% | -15% | -8%[18.4 µM] | / | / | / | -1.3%
CC(=O)Nc1cccc(-c2cc(-c3c(Cl)cccc3Cl)no2)c1
→ -20% | -19% | / | -7% | -93% | / | / | /
COc1ccc(NC(=O)CS(=O)CC(=O)Nc2cccc3cccnc23)cc1 (stereo not drawn)
→ 12% | -3% | / | -10% | 14% | -14%[46.1 µM] | 15% | /
N#CC1(NC(=O)CSc2nnc(-c3ccccc3F)o2)CCCCC1
→ -5% | -8% | / | 2% | / | -1%[46.1 µM] | -1% | /
O=C(CN1C(=O)NC2(CCc3ccccc32)C1=O)NCc1cccc(C(F)(F)F)c1 (stereo not drawn)
→ -1% | 7% | / | -8% | / | ? | 1%[46.1 µM] | /
COc1cc(NC(=O)c2cccc(Br)c2)nc(OC)n1
→ -2% | 14% | / | 0% | -8% | ? | ? | /
COC(=O)c1cc(NC2c3ccccc3C(=O)N2Cc2ccco2)cc(C(=O)OC)c1 (stereo not drawn)
→ 3% | -15% | 2% | -7% | 7% | / | / | 0.3%
O=C(NCCc1ccccc1)C1CCN(C2CCN(C(=O)CC3=CCCCC3)CC2)CC1
→ 1% | -16% | / | -6% | 2% | ? | -7%[46.1 µM] | /
O=C(NC(NC(=S)Nc1ccccc1Cl)C(Cl)(Cl)Cl)c1cccc(Cl)c1 (stereo not drawn)
→ -11% | 0% | -26% | 13% | -15% | ? | ? | -11%
O=C(NCCc1ccccc1)c1ccc(CS(=O)(=O)Cc2ccccc2F)o1
→ -2% | -16% | 1% | -20% | -8% | -13% | 8% | 2.8%
COc1ccc(OC)c(NC(=O)c2cc3ccccc3cc2OC)c1
→ -11% | -4% | / | -8% | -4% | 24%[46.1 µM] | -3%[46.1 µM] | /
Cc1nc(NC2CCCC2)sc1C(=O)N(C)C
→ 9% | -6% | 1% | -15% | -7% | 22%[46.1 µM] | 5% | 1.1%
COc1ccccc1N1CCN(C(=O)CSc2nc3ccccc3nc2Cc2ccc(F)cc2)CC1
→ / | ? | 0% | / | / | / | -7%[46.1 µM] | 3.5%

2 compounds picked at random from the list so far, as already listed:
Screens in order – SARS PLpro yeast | StopGo reporter | Cruzain noTriton | RE007 growth inh | NS1 function inh | MARV entry inh | LASV entry inh | Cruzain inh Det
CCc1ccccc1NS(=O)(=O)c1ccc2[nH]cc(C(=O)N(CC(C)C)CC(C)C)c(=O)c2c1
→ / | 1% | 10% | / | / | / | 0%[46.1 µM] | -5.1%
N#CC1(NC(=O)CSc2nnc(-c3ccccc3F)o2)CCCCC1
→ -5% | -8% | / | 2% | / | -1%[46.1 µM] | -1% | /

Continued:
Screens in order – SARS PLpro yeast | StopGo reporter | Cruzain noTriton | RE007 growth inh | NS1 function inh | MARV entry inh | LASV entry inh | Cruzain inh Det
CC(=O)OCc1cnc(C)c2oc(=O)c(C(=O)Nc3cccc(F)c3)cc12
→ / | -6% | -1% | / | / | / | 0.79µM* | 0.5%
CCCC(=O)NC(=S)Nc1ccccc1C(F)(F)F
→ / | -4% | 12% | ? | -2% | 6% | -1% | -1.7%
c1ccc(COc2ccc(CNCc3cccnc3)cc2)cc1
→ 2% | 8% | / | -14% | 3% | ? | -8% | /
CC(=O)Nc1ccc(-c2csc(NC(=O)CCCc3cccs3)n2)cc1
→ -8% | -12% | 10µM* | 20% | 16% | ? | ? | -5.5%
CC(C)(C)C(=O)COC(=O)c1cc(S(=O)(=O)N2CCCCC2)ccc1N1CCOCC1
→ 3% | -22% | / | 2% | / | -3% | 4% | /
Cc1cc(C)nc(SCC(=O)c2cc3ccccc3oc2=O)n1
→ -15% | 3% | -11% | ? | -7% | 17%[46.1 µM] | 13% | -7.3%
COc1ccc(OC)c(S(=O)(=O)NCC(c2cccs2)S(=O)(=O)c2ccc(F)cc2)c1 (stereo not drawn)
→ / | 12% | 32% | / | / | / | ? | 5.2%
CC(C)[C@H]1C(=O)Nc2ccccc2N1C(=O)N[C@@H](Cc1ccccc1)C(=O)N[C@@H](Cc1ccccc1)C(=O)O
→ -4% | -13% | / | 2% | ? | / | / | /
CCCNC(=O)Cn1cnc2sc(C(=O)Nc3ccc4c(c3)OCO4)c(C)c2c1=O
→ -1% | 19% | ? | 10% | 5% | -25% | 35% | -1.5%
Cc1cc(S(=O)(=O)N2CCOCC2)ccc1F
→ 7% | -20% | -13% | -4% | -18% | 20%[46.1 µM] | 17% | 1.7%
COC(=O)c1cc2oc3ccccc3c2n1Cc1nc(-c2cccc(C)c2)oc1C
→ / | 10% | 0% | / | / | ? | / | -0.3%
CC(C)COC(=O)N1CCCC1C(=O)O (stereo not drawn)
→ 6% | / | -10% | -9% | 11% | 6% | -4% | 1.3%
FC(F)(F)c1nc(N2CCCC2)ncc1-c1nnnn1-c1ccc(Cl)cc1
→ -19% | ? | 0% | -10% | 3% | ? | ? | -8.8%
O=C(O)Cc1sc(NCc2ccco2)nc1-c1ccccc1
→ -1% | 2% | / | 17% | 3% | / | / | /
O=C(O)C1CC=C(Cl)CC1C(=O)NCC1OCCc2ccccc21 (stereo not drawn)
→ 5% | -13% | 9% | 2% | 9% | -7% | 11% | 3.1%
CC(=O)/C(=N/Nc1ccc([N+](=O)[O-])cc1)N1CCCc2ccccc21
→ 3% | ? | / | 2% | -31% | -11%[46.1 µM] | -6% | /
CN1C(=O)CC(=O)N(C)c2cc(S(=O)(=O)N(C)Cc3ccccc3)ccc21
→ -2% | -7%&-18% | -5% | -10% | 6% | 8%&-10%[46.1 µM] | -21%&-8%[46.1 µM] | -6.0%
Cc1ccc(NC(=O)c2cc(S(=O)(=O)N3CCc4ccccc43)cn2C)c(Cl)c1
→ / | -10% | -5% | / | / | / | 10%[46.1 µM] | -3.2%

Four compounds from above, arranged by SMILES length, rising.
Screens in order – SARS PLpro yeast | StopGo reporter | Cruzain noTriton | RE007 growth inh | NS1 function inh | MARV entry inh | LASV entry inh | Cruzain inh Det
Cc1cc(S(=O)(=O)N2CCOCC2)ccc1F
→ 7% | -20% | -13% | -4% | -18% | 20%[46.1 µM] | 17% | 1.7%
O=C(O)C1CC=C(Cl)CC1C(=O)NCC1OCCc2ccccc21 (stereo not drawn)
→ 5% | -13% | 9% | 2% | 9% | -7% | 11% | 3.1%
CCCNC(=O)Cn1cnc2sc(C(=O)Nc3ccc4c(c3)OCO4)c(C)c2c1=O
→ -1% | 19% | ? | 10% | 5% | -25% | 35% | -1.5%
CC(C)[C@H]1C(=O)Nc2ccccc2N1C(=O)N[C@@H](Cc1ccccc1)C(=O)N[C@@H](Cc1ccccc1)C(=O)O
→ -4% | -13% | / | 2% | ? | / | / | /

Screens from PubChem BioAssay.
